Source: PubChem
BJeLR viability – MLPCN primary cell-based screen for lethality selective to Ras in HRASV12 cells; BJeLR (HRASV12) viability, CellTiter-Glo ATP luminescence, 48 h; reference of the scale not given here; inhibition, % (test concentration not listed); 0.17% of 300,000 active;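 active = replicate mean above 50%; inconclusive = above 50% but judged a plate artefact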;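 note: 50 nL library stock added to about 25 µL; numbers are from one replicate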
Autofluor counter – compound fluorescence in toxin protease inhibitor counterscreen; compound autofluorescence counterscreen, microsphere flow cytometry; stronger effect = higher value; 3.1% of 360,000 active; fluorescence intensity (concentration not given with the values);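 active = at least 3 SD above the mean of all compounds, about 16000 in these data; inconclusive = too few beads counted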;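 note: 100 nL of 1 mM stock went into each well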
PrP UTR inh – inhibition of PrP 5' UTR reporter expression; cell-based PrP 5' UTR mRNA reporter, plate reader; inhibition, % (test concentration not listed); 0.35% of 340,000 active;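 active = every replicate at 50% or more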;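 note: 0 = median of the neutral control wells; tested in H4 reporter cells; numbers are from one replicate; inactives centre near -14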
RN4220 kill – growth inhibition of S. aureus RN4220, primary screen, OD600; inhibition, % (concentration not given with the values); 0.33% of 330,000 active; 16 h;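 active = z-score of -3 or lower and OD600 up to 0.18 on both plates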;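 note: plate controls were untreated cells for no effect and reference antibiotic for full effect; stock transfer was 100 nL into about 80 µL; one replicate is shown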
ugtP null kill – growth inhibition of ugtP-null S. aureus, primary screen, RN4220 ugtP deletion, OD600. 16 h; some inactives read as strong as hits. growth inhibition, % (test concentration not listed). 0.54% of 330,000 active. AID 1259309, 2017;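 active = z-score under -3 and OD600 up to 0.15 on both plates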;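 note: plate controls were untreated wells for no effect and antibiotic for full effect; wells of about 80 µL received 100 nL stock; the first replicate is given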
Mtb hypoxia inh – PubChem AID 1159583 | M. tuberculosis hypoxia-regulated fluorescent reporter, fluorescence | fluorescence inhibition, % (concentration not given with the values) | 0.1% of 300,000 active;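 active = 35 to 45% if threefold the growth effect, above 45% if 1.5-fold the growth effect; inactive = the rest, general growth blockers included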;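 note: wells of about 50 µL received 100 nL stock; 0% = vehicle wells and 100% = reference inhibitor wells; whole bacteria with a GFP reporter of the hypoxia response; strong numbers were not always called active; many hits fall short of the cut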
Mtb hypoxia inh growth – also measured in Mtb hypoxia inh; calls as there; growth inhibition, %; measured here: M. tuberculosis growth (absorbance);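 0% = vehicle and 100% = reference antibiotic; read after six days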
Starred values were filed as active, the others as inactive; ? = inconclusive; . = no result given.

SMILES	BJeLR viability	Autofluor counter	PrP UTR inh	RN4220 kill	ugtP null kill	Mtb hypoxia inh	Mtb hypoxia inh growth
O=C(Nc1nnc(SCCN2CCOCC2)s1)C1CC(=O)N(c2ccccc2)C1 (configuration not stated)	-5	5286	-29	1.4	4	-1	9
COCCNC(=O)C(OC(=O)c1ccco1)c1ccccc1OC (configuration not stated)	-8	9746	-13	0.7	0	8	9
CC(=NNc1ccccn1)c1ccc(C(C)C)cc1	.	.	.	-7.7	3	-4	-2
CCc1nnc(NC(=O)c2ccc(S(=O)(=O)N3CCCCCC3)cc2)s1	-2	2209	-6	1.6	8	.	.
O=C(O)C=Cc1ccc(Cn2ccnc2)cc1	.	.	.	7.8	-1	-2	5
COc1ccc(CNC(=O)CCCn2nc(C)c3c(C)n(-c4ccc(C)cc4)nc3c2=O)cc1	-1	5749	4	1.0	0	-6	8
CC1Cn2c(CCc3ccccc3)nnc2S1 (configuration not stated)	7	6464	-20	5.7	11	5	-2
Cc1cc(C)n2nc(C(=O)OCC(=O)Nc3cc(S(=O)(=O)N4CCOCC4)ccc3Cl)nc2n1	.	2815	-6	1.5	0	-4	-11
Cc1n[nH]c(=O)c2c(NC(=O)CSc3nncn3C(C)C)oc(C)c12	.	6470	2	6.9	4	1	0
COc1ccc(S(=O)(=O)N2CCOCC2)cc1NC(=O)CSc1nnc(C2CC2)n1N	-2	3928	-14	3.2	7	3	5
O=C1OC(N2CCN(C(=O)c3ccco3)CC2)c2ccccc21 (configuration not stated)	-1	4181	-15	36	-7	.	.
COc1ccc(S(=O)(=O)N2CCC(NC(=O)c3cccnc3)CC2)cc1	-1	6248	1	6.4	4	0	-1
C=CCOc1ccc(C=Nc2cccc(Cl)c2)c(O)c1	8	2571	8	2.3	1	-21	2
CCOc1ccc(N2C(=O)CC(=O)NC2=O)cc1	-7	3579	-15	3.0	12	2	8
CCN(CC)S(=O)(=O)c1cccc(C(=O)N[C@H](C(=O)NCc2ccccc2F)C(C)C)c1	4	?	-10	5.2	12	11	9
Cc1nc(N2CCOCC2)nc(Oc2ccccc2F)c1[N+](=O)[O-]	-5	4668	13	3.9	21	-1	8
COc1ccc2c(c1)c(C(C)=O)c(C)n2CCc1ccc(OC)c(OC)c1	10	5561	-10	-0.5	5	5	5
Cc1ccc(C(=O)Nc2ccc(S(=O)(=O)N3CCCC3)cc2)s1	22	6095	-2	3.4	2	1	6
CC1CCCN(C(=O)Cn2nnc(-c3ccc([N+](=O)[O-])cc3)n2)C1 (configuration not stated)	-15	4527	-29	.	.	.	.
CC12CCC(C(=O)N(CSC(=S)NN=Cc3ccccc3)C1=O)C2(C)C (configuration not stated)	.	.	.	4.9	-2	10	16

Reprinted at random: 5 records from the list, in no set order.
SMILES	BJeLR viability	Autofluor counter	PrP UTR inh	RN4220 kill	ugtP null kill	Mtb hypoxia inh	Mtb hypoxia inh growth
COc1ccc2c(c1)c(C(C)=O)c(C)n2CCc1ccc(OC)c(OC)c1	10	5561	-10	-0.5	5	5	5
CC1Cn2c(CCc3ccccc3)nnc2S1 (configuration not stated)	7	6464	-20	5.7	11	5	-2
COc1ccc(S(=O)(=O)N2CCC(NC(=O)c3cccnc3)CC2)cc1	-1	6248	1	6.4	4	0	-1
CC1CCCN(C(=O)Cn2nnc(-c3ccc([N+](=O)[O-])cc3)n2)C1 (configuration not stated)	-15	4527	-29	.	.	.	.
O=C(Nc1nnc(SCCN2CCOCC2)s1)C1CC(=O)N(c2ccccc2)C1 (configuration not stated)	-5	5286	-29	1.4	4	-1	9

(list continues)
SMILES	BJeLR viability	Autofluor counter	PrP UTR inh	RN4220 kill	ugtP null kill	Mtb hypoxia inh	Mtb hypoxia inh growth
NC(=O)c1ccc(-c2nnn(CC(=O)N(C3CCCCC3)C3CCS(=O)(=O)C3)n2)cc1 (configuration not stated)	.	3949	-8	0.9	3	-6	-4
Cc1cc(C)n2nc(CNS(=O)(=O)c3c(F)c(F)c(F)c(F)c3F)nc2n1	5	4527	-1	1.7	7	3	-3
Cc1ccc(C)c(C(C)NC(=S)NC2CCCCC2)c1 (configuration not stated)	6	5688	3	-7.3	-1	-4	6
CN(C)c1ccc(C(=S)Nc2ccccc2)cc1	3	2469	22	4.5	21	8	2
Cc1cccc(CCN2CCN=C2N(C)C)c1	.	4441	-11	9.2	-3	11	9
O=C(NCCNC(=O)c1ccco1)c1cccc(F)c1	-5	4155	-20	-1.3	-2	1	4
Nc1oc2ccc(F)cc2c(=O)c1C=O	8	1971	-23	4.4	3	-3	-1
C=CC12CN(C)[C@@H]3C4CO[C@H](C[C@H]41)[C@]1(C(=O)Nc4ccccc41)[C@@H]32 (some centres not stated)	-7	5319	-6	5.7	4	.	.
Cc1ccc(C)c(OCC(=O)N2CCc3ccccc3C2)c1	-4	6783	-7	3.9	0	11	12
O=C(Nc1cccnc1)C1CCCN(S(=O)(=O)c2ccccc2)C1 (configuration not stated)	-3	.	-2	2.4	-5	4	6
CN(CCn1ccnc1)C(=O)CC1C(=O)NCCN1Cc1ccccc1C(F)(F)F (configuration not stated)	.	3862	-18	1.8	-13	-8	5
CCOC(=O)c1[nH]c(C)c(C(=O)Nc2cccc(Cl)c2C)c1C	0	19613*	-31	3.7	-7	3	5
Cc1ccc(S(=O)(=O)NNC(=O)c2c(O)c3ccccc3[nH]c2=O)cc1	0	6436	-20	1.3	-4	11	-5
CCCN1CCN(C(=O)c2cc(COc3ccc(F)cc3F)on2)CC1	5	5765	-3	-1.5	-2	-7	4
O=C(NCCc1nc2ccccc2[nH]1)c1cc([N+](=O)[O-])cc([N+](=O)[O-])c1	-3	8195	-15	1.2	-2	3	10
CC(=NNC(=O)Cc1cc(=O)[nH][nH]1)c1ccc([N+](=O)[O-])cc1	.	.	.	5.0	5	15	3
C1=C(CCNc2nnnn2-c2ccccc2)CCCC1	0	4666	3	2.6	0	11	4
O=C(CCNc1ccc(Br)cc1)c1cccc([N+](=O)[O-])c1	6	4144	-1	1.4	0	-4	12
Cn1c(=O)c2c(nc(-n3ccnc3)n2Cc2ccc([N+](=O)[O-])cc2)n(C)c1=O	3	2467	-21	-2.9	-5	.	.
O=c1nc2ccccc2c2n1CC(CN1CCN(Cc3ccccc3)CC1)N2 (configuration not stated)	8	2936	1	3.5	0	9	3
COC(=O)COc1ccc2c(-c3cccc([N+](=O)[O-])c3)cc(=O)oc2c1	10	2523	-5	-23	-9	5	10
CCc1cccc(C)c1NC(=O)c1ccc2nc(N3CCOCC3)sc2c1	4	5550	-2	4.6	6	1	4
CCOC(=O)C1CCCN(CCC(=O)Nc2ccc3c(c2)CCC3)C1 (configuration not stated)	6	11353	-3	6.9	4	5	8
Cc1ccc2c(N)c(C)ccc2c1	-3	3425	-29	4.0	16	.	.
Nc1nnc(/C=C/c2ccccc2Cl)s1	3	5601	-25	5.6	-4	6	14
COc1cccc(C(=O)NNC(=O)Cc2ccc(Cl)cc2)c1	-4	2069	-14	6.3	1	14	-1
O=C(COC(=O)c1ccc(Br)o1)Nc1ncc(Cl)cc1Cl	7	4723	-12	2.6	0	5	-4
CCCc1nnc(NC(=O)COC(=O)c2cc(C)nc3ccccc23)s1	8	10926	-4	4.6	2	1	2
O=C(Cn1nnc(-c2ccccc2F)n1)Nc1ccc2c(c1)OCCO2	-4	4534	-21	-0.6	1	3	6
COc1cc(OC)cc(C(=O)OCC(=O)Nc2nnc(-c3ccccc3)o2)c1	.	?	-15	5.7	4	-15	-34

Three structures from above, ordered by molar mass, highest first.
SMILES	BJeLR viability	Autofluor counter	PrP UTR inh	RN4220 kill	ugtP null kill	Mtb hypoxia inh	Mtb hypoxia inh growth
O=C(NCCc1nc2ccccc2[nH]1)c1cc([N+](=O)[O-])cc([N+](=O)[O-])c1	-3	8195	-15	1.2	-2	3	10
O=C1OC(N2CCN(C(=O)c3ccco3)CC2)c2ccccc21 (configuration not stated)	-1	4181	-15	36	-7	.	.
O=C(NCCNC(=O)c1ccco1)c1cccc(F)c1	-5	4155	-20	-1.3	-2	1	4

Continuation.
SMILES	BJeLR viability	Autofluor counter	PrP UTR inh	RN4220 kill	ugtP null kill	Mtb hypoxia inh	Mtb hypoxia inh growth
Cc1cc(C)n2nc(N)c(N=Nc3ccc(Cl)cc3)c2n1	-2	2424	-20	1.6	-3	5	12
CCOc1ccc(N(CC(=O)Nc2cccc(N(C)S(C)(=O)=O)c2)S(=O)(=O)c2ccccc2)cc1	-6	3081	-5	2.7	5	6	3
CN(C(=O)COC(=O)c1cc([N+](=O)[O-])ccc1Cl)c1ccccc1	2	3658	-17	0.2	9	3	-9
COc1ccc(/C=C(\C#N)C(=O)NC2CCS(=O)(=O)C2)cc1OC (configuration not stated)	4	2477	3	0.2	4	5	0
O=C(CSc1ncccc1-c1nc2ccccc2[nH]1)N1CCCCC1	-3	9817	-20	6.1	-7	4	10
COc1cc(C=NNC(=O)c2ccc(C)nc2)cc([N+](=O)[O-])c1O	.	.	.	-1.0	-1	11	-6
CN1CCN(CC(O)COc2ccc(C34CC5CC(CC(C5)C3)C4)cc2)CC1 (configuration not stated)	.	3463	34	4.4	46	16	16
CC(=O)N1CCN(C(=O)CCc2cc(C(C)(C)C)c(O)c(C(C)(C)C)c2)CC1	7	4032	-15	1.4	2	-8	0
Cc1ccc(-n2c(SCC3CNC(=O)O3)nnc2-c2ccccc2)cc1C (configuration not stated)	-16	.	.	4.7	6	1	5
COc1ccc(C=NNC(=O)c2cc(-c3ccc4c(c3)OCO4)n[nH]2)cc1OC	.	.	.	8.1	5	9	10

Laid out differently: results already given.
COc1ccc(/C=C(\C#N)C(=O)NC2CCS(=O)(=O)C2)cc1OC (configuration not stated)
  BJeLR viability: 4	Autofluor counter: 2477	PrP UTR inh: 3	RN4220 kill: 0.2	ugtP null kill: 4	Mtb hypoxia inh: 5	Mtb hypoxia inh growth: 0
O=C(CSc1ncccc1-c1nc2ccccc2[nH]1)N1CCCCC1
  BJeLR viability: -3	Autofluor counter: 9817	PrP UTR inh: -20	RN4220 kill: 6.1	ugtP null kill: -7	Mtb hypoxia inh: 4	Mtb hypoxia inh growth: 10
COc1cc(C=NNC(=O)c2ccc(C)nc2)cc([N+](=O)[O-])c1O
  BJeLR viability: .	Autofluor counter: .	PrP UTR inh: .	RN4220 kill: -1.0	ugtP null kill: -1	Mtb hypoxia inh: 11	Mtb hypoxia inh growth: -6
CN1CCN(CC(O)COc2ccc(C34CC5CC(CC(C5)C3)C4)cc2)CC1 (configuration not stated)
  BJeLR viability: .	Autofluor counter: 3463	PrP UTR inh: 34	RN4220 kill: 4.4	ugtP null kill: 46	Mtb hypoxia inh: 16	Mtb hypoxia inh growth: 16

Other records follow:
SMILES	BJeLR viability	Autofluor counter	PrP UTR inh	RN4220 kill	ugtP null kill	Mtb hypoxia inh	Mtb hypoxia inh growth
COC(=O)c1[nH]nc(-c2ccccc2)c1-c1ccccc1	-6	.	-9	1.2	-2	8	4
CCOC(=O)c1ccc(NC(=O)N(CC)CC)cc1	4	20244*	-36	6.2	-2	10	7
O=C1NC2(CCc3ccccc3C2)C(=O)N1CCOc1cccc(Cl)c1 (configuration not stated)	0	8144	-70	9.8	-9	4	16
O=C(O)CSCC(=O)Nc1cccc(C(F)(F)F)c1	5	10352	-25	2.3	2	5	5
O=C1CC(SCc2nc3ccccc3[nH]2)C(=O)N1c1ccc(F)c(Cl)c1 (configuration not stated)	-12	22834*	-6	7.0	0	10	11
CC1CC1C(=O)OCC(=O)Nc1ccc2[nH]c(=O)[nH]c2c1 (configuration not stated)	2	2474	4	5.8	10	2	6
CCOC(=O)C1=CN(Cc2cccc(F)c2)S(=O)(=O)NC1c1ccc2ccccc2c1 (configuration not stated)	.	3606	-25	-1.9	-4	0	-5
NC(=O)c1ccsc1NC(=O)c1ccc2c(c1)CCCC2	18	5961	-65	1.0	-2	5	12
Cc1ccc(S(=O)(=O)NC(CC(=O)N2CCOCC2)c2ccco2)cc1 (configuration not stated)	4	2604	-55	-2.2	-2	.	.
Cc1ccc(S(=O)(=O)N2CCN(CC(=O)N/N=C/c3cc([N+](=O)[O-])ccc3Cl)CC2)cc1	6	2213	-90	.	.	.	.
CCn1c(C)c(P(c2ccccc2)c2ccccc2)[n+]2ccccc12	-9	3613	-7	4.3	6	4	8
COc1ccc(NC(=O)CN(C)C(=O)c2cc(-c3ccc(C)o3)nc3ccccc23)cc1	-3	?	-24	1.6	8	-6	0
CCNC(=O)COc1ccc(-c2ccccc2)cc1	3	10702	-14	5.9	3	1	10
Cc1ccc2oc(=O)c3cc(C(=O)NCCCN4CCCCCC4)sc3c2c1	5	5536	-1	3.2	10	9	7
